Screening data from PubChem.
Bead autofluor: flagged as autofluorescent in microsphere protease counterscreen | compound autofluorescence counterscreen, microsphere flow cytometry; stronger effect = higher value | fluorescence intensity (test concentration not listed) | 360,000 compounds, 3.1% hits;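 active = at least 3 SD above the mean of all compounds, about 16000 in these data; inconclusive = too few beads counted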;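 note: 100 nL of 1 mM stock went into each well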
Sa ugtP lethal: compounds lethal to S. aureus RN4220 ugtP deletion mutant; growth inhibition, % (test concentration not listed); OD600 growth, 16 h; some inactives read as strong as hits; AID 1259309; 330,000 compounds, 0.54% hits;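 active = z-score under -3 and OD600 up to 0.15 on both plates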;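 note: plate controls were untreated wells for no effect and antibiotic for full effect; wells of about 80 µL received 100 nL stock; the first replicate is given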
Sa RN4220 lethal: S. aureus RN4220 growth inhibition | AID 1259311 | inhibition, % (test concentration not listed) | OD600, 16 h | 330,000 compounds, 0.33% hits;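 active = z-score of -3 or lower and OD600 up to 0.18 on both plates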;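 note: plate controls were untreated cells for no effect and reference antibiotic for full effect; stock transfer was 100 nL into about 80 µL; one replicate is shown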
BJeLR viability: kills HRASV12-expressing BJeLR cells. BJeLR (HRASV12) viability, CellTiter-Glo ATP luminescence, 48 h; reference of the scale not given here. inhibition, % (concentration not given with the values). 300,000 compounds, 0.17% hits. AID 1554;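 active = replicate mean above 50%; inconclusive = above 50% but judged a plate artefact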;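 note: 50 nL library stock added to about 25 µL; numbers are from one replicate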
Mtb hypoxia inh: reduces hypoxia-regulated biosensor signal in M. tuberculosis. 300,000 compounds, 0.1% hits. fluorescence inhibition, % (concentration not given with the values). M. tuberculosis hypoxia-regulated fluorescent reporter, fluorescence;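 active = 35 to 45% if threefold the growth effect, above 45% if 1.5-fold the growth effect; inactive = the rest, general growth blockers included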;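 note: wells of about 50 µL received 100 nL stock; 0% = vehicle wells and 100% = reference inhibitor wells; whole bacteria with a GFP reporter of the hypoxia response; strong numbers were not always called active; many hits fall short of the cut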
PrP 5UTR inh: suppresses PrP 5' UTR mRNA reporter expression; cell-based PrP 5' UTR mRNA reporter, plate reader; inhibition, % (test concentration not listed); 340,000 compounds, 0.35% hits; AID 488862;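 active = every replicate at 50% or more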;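 note: 0 = median of the neutral control wells; tested in H4 reporter cells; numbers are from one replicate; inactives centre near -14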
Mtb hypoxia inh growth: second read-out of Mtb hypoxia inh, no call of its own (marks repeat the call); growth inhibition, %; measured here: M. tuberculosis growth (absorbance);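 0% = vehicle and 100% = reference antibiotic; read after six days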
The depositor's hits bear a star; ? = inconclusive; nt = not tested or not shown.

SMILES	Bead autofluor	Sa ugtP lethal	Sa RN4220 lethal	BJeLR viability	Mtb hypoxia inh	Mtb hypoxia inh growth	PrP 5UTR inh
NC(=O)CC(NC(=O)c1ccc(Br)cc1)c1ccc(NCc2ccc(F)c(F)c2)c([N+](=O)[O-])c1 (stereo not given)	2857	10	-7.0	7	6	6	11
Cc1c(C(=O)NNC(=O)c2ccncc2)oc2ccccc12	6814	8	-1.5	nt	-11	-17	12
O=C(c1ccccc1)N1CCCN(c2nccc(C(F)(F)F)n2)CC1	3977	17	3.7	-13	8	8	-35
CN1CCN(C2=CC(=O)OC23CCCCC3)CC1	2422	5	-0.2	-4	nt	nt	-7
O=C1COc2ccc(C(=O)CSc3ccc(Br)cc3)cc2N1	8922	12	-1.9	nt	-1	4	-22
Oc1cccc(Nc2c3ccccc3nc3ccccc23)c1	4153	nt	nt	16	nt	nt	-10
COc1ccc(NC(=O)c2cnn(-c3ccccc3)c2C)c(OC)c1	3327	5	5.2	7	-3	5	-19
CC(C)CC(=O)Nc1nnc(SCC(=O)Nc2ccc3c(c2)OCO3)s1	2162	1	-0.8	-3	3	12	-30
Cc1cc(C)cc(N=Cc2ccc([N+](=O)[O-])s2)c1	2448	3	3.0	-7	-10	4	-32
COc1ccc(CNC(=O)CC(C)=NNC(=O)c2ccc(OC)cc2OC)cc1	nt	11	1.9	nt	3	5	nt
CCOc1ccc(C=Nn2c(SC)nnc2-c2ccccc2)cc1OCC	nt	-9	5.0	nt	2	2	nt
N#CC1=C(N)Oc2c(oc(CO)cc2=O)C1c1ccsc1 (stereo not given)	3745	8	1.1	-5	5	2	-19
COc1ccc(C(=O)O)cc1S(=O)(=O)Nc1ccccc1-c1ccccc1	3316	6	-2.1	5	8	-3	-13
O=C1c2cccnc2C(Nc2ccc(S(=O)(=O)N3CCCCCC3)cc2)N1Cc1ccccc1 (stereo not given)	21615*	2	2.9	8	5	8	-16
CC1(C)CC(NC(=O)C(C)(C)Oc2ccc(Cl)cc2)CC(C)(C)N1	3196	0	0.0	0	8	-5	-16
CCOC(=O)N1CCN(S(=O)(=O)N2CCCC(C(=O)NCCCN3CCCCC3CC)C2)CC1 (stereo not given)	5194	4	2.7	5	2	-6	-22
COc1ccccc1N1CCN(C(=O)CSc2nnc3c4ccccc4nc(Cc4ccccc4)n23)CC1	nt	-2	-1.3	-5	3	3	nt
Cc1nnc(NC2CCCCC2)[nH]c1=O	3536	7	5.1	-2	6	1	-4
Cn1ncc2c(=O)n(N=Cc3ccccc3)cnc21	nt	-6	5.5	nt	-1	2	nt
CCCCn1c(SCC(=O)N2CCCC2)nnc1-c1ccccc1	8148	0	-0.7	10	6	2	-30
Cc1cc(C)c(Nc2cc(S(=O)(=O)O)c(N)c3c2C(=O)c2ccccc2C3=O)c(C)c1	1624	28	-20	nt	17	-15	-4
O=C1Cc2cc(S(=O)(=O)Nc3ccccc3Cl)cc3c2N1CCC3	5040	-3	11	3	13	8	-7
CCCCn1c(N)c(N(CCOC)C(=O)CN2CC=C(c3ccccc3)CC2)c(=O)[nH]c1=O	4324	6	-0.7	3	-10	8	-26
CN(C)c1ccc(C(=O)NCC(c2cccs2)N2CCOCC2)cc1 (stereo not given)	2747	3	2.8	nt	1	4	-15
Cc1onc(-c2ccccc2)c1-c1n[nH]c(=S)n1-c1ccccc1	8904	1	11	0	1	0	-23
O=C(Cn1c(C(=O)N2CCc3ccccc3C2)cc2sccc21)c1ccccc1	10691	-13	-4.7	-31	-1	10	-24
Cc1cc(CNC(=O)c2cc(Br)ccc2Cl)nn1C	11132	-3	-0.2	-2	-5	10	-19
COc1ccc2c(CC(=O)Nc3ccccc3N3CCOCC3)coc2c1	4751	2	1.3	-6	3	-2	-15
O=C(O)c1ccc(CS(=O)(=O)c2ccc(Br)cc2)cc1	3568	12	7.8	0	-7	0	2
CC(Sc1nnc2c(n1)C1(C)CCC2C1(C)C)C(=O)Nc1ccccc1 (stereo not given)	?	7	4.3	-23	8	13	-29
C/C(=N\OCc1ccc(C#N)cc1)c1ccccc1	4116	nt	nt	-1	nt	nt	-35
COc1cc(-c2nc(C(F)(F)F)c(OC)o2)cc(OC)c1OC	1913	nt	nt	7	nt	nt	1
Cn1c(C(=O)N2CCCC(C(=O)NCCN3CCOCC3)C2)cc2sccc21 (stereo not given)	10244	-1	4.4	3	4	4	-13
COc1ccc(-n2nc(C(=O)NCC(=O)N3CC(C)CC(C)C3)c3ccccc3c2=O)c(OC)c1 (stereo not given)	3747	4	3.6	-1	-9	-6	-8
O=C(CCCOc1ccccc1)NNC(=O)c1ccc(Cl)cc1	2794	-1	2.7	nt	-8	3	6
Cc1cc([N+](=O)[O-])nn1CCCC(=O)Nc1sc2c(c1C(N)=O)CCC(C)C2 (stereo not given)	2556	-1	3.5	-17	-3	6	-23
Cc1ccc(-c2cc(C(=O)N/N=C/c3ccco3)[nH]n2)cc1	3234	nt	nt	6	nt	nt	-22
Cc1ccc(NS(=O)(=O)c2cc3[nH]c(=O)c(=O)[nH]c3cc2C)c(C)c1	5669	7	1.5	-7	nt	nt	-25
CCCCN(C)S(=O)(=O)c1cc2c(cc1Br)CCN2C(=O)C1CC1	4235	-7	10	nt	3	8	-26
CCOC(=O)C(Cc1ccccc1)NC(=O)CNC(=O)CNC(=O)OCc1ccccc1 (stereo not given)	2125	14	3.3	-3	9	8	-8
CCN(CC(=O)NCc1cccs1)C(=O)CCCOc1ccc(C(C)(C)C)cc1	3811	6	2.0	nt	-1	5	-11
CCN1CCN(C(=O)Cn2ncc3c2-c2ccccc2OC3)CC1	4783	11	-0.5	-12	3	0	1
O=C(O)Cc1ccc(NC(=O)COc2ccc3ccccc3c2)cc1	4922	8	5.6	15	7	1	7
Cc1cc(C(C)(C)C)oc1C(=O)NCCCNC(=O)c1oc(C(C)(C)C)cc1C	2860	11	-15	-3	0	3	-3
CCC1(C)Cc2c(C#N)c(SC)nc(N3CCOCC3)c2CO1 (stereo not given)	3640	14	1.2	4	2	8	nt
Cc1cc(C)n2nc(SCC(=O)N(CCC#N)c3ccccc3F)nc2n1	3577	3	9.4	nt	7	0	-29
COc1c(F)c(F)c(C(=O)Nc2ccc(N3CCN(C(C)=O)CC3)c(Cl)c2)c(F)c1F	17323*	-4	-8.6	3	1	-7	-17
CCN1C(=O)C(=O)N(Cc2ccc(OC)c(F)c2)C1=O	2959	5	-2.2	0	14	8	-18
O=C1C2C(c3ccccc3)C=CC(c3ccccc3)C2C(=O)N1CCCO (stereo not given)	5096	-3	-1.8	-2	nt	nt	-6
Cc1csc(Nc2cccc3ccccc23)n1	2036	-18	-0.3	3	1	9	-13
Next compounds:
SMILES	Bead autofluor	Sa ugtP lethal	Sa RN4220 lethal	BJeLR viability	Mtb hypoxia inh	Mtb hypoxia inh growth	PrP 5UTR inh
Cn1c(=O)c(=O)n(C)c2cc(S(=O)(=O)N3CCCC3C(=O)NCc3ccco3)ccc21 (stereo not given)	4614	7	1.7	6	2	-5	-23
C=C(C)c1cccc(C(C)(C)NC(=O)N2CCN(c3ncccn3)CC2)c1	3557	1	5.4	7	9	3	-19
Cc1nn(CC(=O)Nc2ccc3c(c2)OCCO3)c(C)c1[N+](=O)[O-]	3460	4	-1.4	nt	9	3	-17
CC(C)N(CCn1c(=S)[nH]c2ccccc2c1=O)C(C)C	2761	-2	0.4	2	nt	nt	-22
CSc1nc(N2CCOCC2)c2sccc2n1	3560	15	6.5	8	-1	-6	-4
O=C(COC(=O)c1ccc(S(=O)(=O)N2CCCCC2)cc1)NCc1ccco1	3989	2	-0.6	-1	9	-2	-12
CN(C)CCC(=O)c1ccc(Cl)cc1	2747	25	-2.8	1	nt	nt	2
Cc1ccc2c(c1)/C(=N/N1C(=O)c3ccccc3C1=O)C(=O)N2	2127	nt	nt	0	nt	nt	-14
Cc1ccccc1-c1nnc(SCC(=O)N2CCCC2)o1	4508	-1	-1.4	-4	13	8	-23
CC(=O)Nc1ccc(N=Nc2ccccc2)cc1[N+](=O)[O-]	2998	3	1.8	nt	0	9	nt
Cc1ccc(-c2nc3cccnc3s2)cc1NS(=O)(=O)c1ccc2c(c1)CCCC2	5605	75	4.7	-11	11	8	-18
CCOC(=O)c1c(CC(C)C)csc1/N=C/C1C(=O)CCCC1=O	4661	nt	nt	-3	nt	nt	-9
C=CCOC(=O)C1=CC(c2coc3ccccc3c2=O)CC(OCc2ccc(CO)cc2)O1 (stereo not given)	nt	4	2.9	nt	10	-5	nt
Cc1ccc(C)c(CSc2nnc(C)c(=O)n2N)c1	3998	-4	0.7	3	1	5	-10
CCOC(=O)C1=C(N)N(c2ccccc2)C2=C(C(=O)CCC2)C1c1cccnc1 (stereo not given)	2105	6	4.4	-14	8	0	-3
COC(=O)[C@H](CC(C)C)NC(=O)Cn1cnc2c(OCc3ccccc3)ncnc21	3874	1	0.9	nt	-1	2	9
COCCNC(=S)Nc1ccc2[nH]c(=O)[nH]c2c1	4923	5	1.9	-7	7	0	-27
C=CCC1(CC=C)CCCN1C(=O)CC1C(=O)NCCN1Cc1ccc(OC)c(OC)c1 (stereo not given)	2399	-1	4.2	0	2	1	-5
CCOC(=O)c1cccc(S(=O)(=O)N(CCO)Cc2cc3cc(OC)ccc3[nH]c2=O)c1	9606	-2	1.4	-2	-1	1	-28
O=[N+]([O-])c1ccc(-c2nc(-c3cccs3)c(-c3cccs3)[nH]2)cc1	5682	-10	28	5	4	18	-27
Cc1ccc(N2C(=O)CC(NCc3ccc4c(c3)OCO4)C2=O)cc1Cl (stereo not given)	2372	6	3.1	9	11	7	-91
COc1ccc([C@H]2CC(=O)C=C(c3cccc(C(F)(F)F)c3)C2)cc1	3027	3	-6.6	nt	5	0	-16
Cc1cccc(OCC(=O)Nc2ccc(CN3CCOCC3)cc2)c1C	6030	-2	-0.5	-6	6	3	-6
CC(C)(C)c1ccc(SCCc2ccccn2)cc1	4099	48	7.7	-3	22	10	-84
O=c1c2ccccc2nc(SCc2nnc(-c3ccccc3)o2)n1-c1ccc(F)cc1F	4532	nt	nt	5	nt	nt	-16
COc1ccc(N(/N=C2\Sc3ccccc3C2=O)C(C)=O)cc1	2045	nt	nt	-5	nt	nt	-88
COc1ccccc1OCCNC(=O)c1cc(=O)[nH]c2ccccc12	4246	-7	3.6	0	-3	-6	6
CCCCSc1nc2c(cc1C#N)CCC2	20908*	43	8.3	5	9	4	-18
CCOc1ccc(OCC)c(S(=O)(=O)n2cnc(C)c2)c1	4349	-5	1.6	-16	1	-1	-29
Nn1c(-c2ccccn2)nnc1-c1ccccn1	4035	3	2.6	-7	14	5	-24
Cc1c(NP(=O)(Oc2ccccc2F)Oc2ccccc2F)c(=O)n(-c2ccccc2)n1C	2482	3	2.0	5	2	1	-8
CSc1nc2c(c(=O)[nH]1)C(c1cccc(Cl)c1Cl)CC(=O)N2 (stereo not given)	4627	nt	nt	3	nt	nt	-39
COc1cc(F)ccc1CN1CCC(n2nccc2NC(=O)C2CCOC2)CC1 (stereo not given)	5047	3	1.4	7	-4	-1	3
CCN(CC)C(=O)c1c(-c2ccccc2)oc2ccc(O)cc12	3198	0	0.2	-6	7	1	-17
Cc1ccc(C)c(NC(=S)NNC(=O)c2ccco2)c1	11239	1	4.4	5	12	7	nt
Cc1ccc(-c2nc(=S)c3c(n2Cc2ccco2)CC(C)(C)OC3)cc1	nt	25	-5.2	-3	8	4	-9
Cc1ccc(OCCNC(=O)c2ccc3ccccc3n2)cc1	3790	2	-2.8	-4	-6	0	-20
C/C(=N/NC(=O)c1ccc(Br)o1)c1cccs1	5442	nt	nt	2	nt	nt	-38
Cc1noc(C)c1C(=O)Nc1nnc(CC(C)C)s1	4259	5	4.1	-4	0	7	-5

Four of these compounds in another layout:
Results follow in this order: Bead autofluor | Sa ugtP lethal | Sa RN4220 lethal | BJeLR viability | Mtb hypoxia inh | Mtb hypoxia inh growth | PrP 5UTR inh
- Cc1noc(C)c1C(=O)Nc1nnc(CC(C)C)s1
    4259 | 5 | 4.1 | -4 | 0 | 7 | -5
- C/C(=N/NC(=O)c1ccc(Br)o1)c1cccs1
    5442 | nt | nt | 2 | nt | nt | -38
- Cc1ccc(C)c(NC(=S)NNC(=O)c2ccco2)c1
    11239 | 1 | 4.4 | 5 | 12 | 7 | nt
- COc1cc(F)ccc1CN1CCC(n2nccc2NC(=O)C2CCOC2)CC1 (stereo not given)
    5047 | 3 | 1.4 | 7 | -4 | -1 | 3

This is a random part of the collection. Share with any hit: about 4%.
